# Polio RdRp inh: poliovirus RNA polymerase inhibition | hit rate 0.66% among 150,000 | P03300 | poliovirus polymerase elongation, fluorescence polarization; hits give low values | % elongation, % (compound at 16.7 µg/mL); in the data active means % elongation below about 90%; further: some results filed as inactive read as strong as hits
# Target sequence (P03300 1749-2209 limits assumed): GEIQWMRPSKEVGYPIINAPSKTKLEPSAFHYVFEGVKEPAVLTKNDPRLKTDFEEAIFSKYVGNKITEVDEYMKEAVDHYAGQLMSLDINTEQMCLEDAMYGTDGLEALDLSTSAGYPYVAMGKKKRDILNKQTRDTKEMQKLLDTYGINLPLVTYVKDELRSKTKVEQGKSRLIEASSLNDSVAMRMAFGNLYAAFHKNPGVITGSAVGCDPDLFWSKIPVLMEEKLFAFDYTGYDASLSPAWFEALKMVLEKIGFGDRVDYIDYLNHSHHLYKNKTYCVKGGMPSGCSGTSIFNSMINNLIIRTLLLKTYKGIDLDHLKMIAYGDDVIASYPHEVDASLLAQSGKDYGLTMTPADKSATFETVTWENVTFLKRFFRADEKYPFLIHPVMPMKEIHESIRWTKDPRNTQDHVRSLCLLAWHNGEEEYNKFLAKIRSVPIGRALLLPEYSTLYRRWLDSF
# Mtb MenB inh: inhibitors of Mycobacterium tuberculosis MenB enzyme | MenB enzyme assay, absorbance read-out; some hits fall short of the stated cut | P9WNP5 | AID 540299 | hit rate 0.43% among 100,000 | inhibition, %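 (about 12 µg/mL by stock and volumes)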;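 active means mean of two replicates above 30%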;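 further: 0% = no compound and 100% = wells with inactive enzyme; the first replicate is given; strong numbers were not always called active; inactives centre near -10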
# MbtI inh: MbtI salicylate synthase inhibition | P9WFX0 | purified MbtI enzyme, fluorescence intensity read-out | inhibition, %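 (about 17 µg/mL by stock and volumes)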 | hit rate 0.89% among 100,000;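 active means above 50% in both replicates, above 80% if mildly self-fluorescent; inactive means the rest, strongly fluorescent compounds included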;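 further: 0% = mean of negative and 100% = mean of positive controls; one replicate is shown; some compounds called inactive have numbers as strong as hits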
# Target sequence (P9WFX0 whole entry, looked up): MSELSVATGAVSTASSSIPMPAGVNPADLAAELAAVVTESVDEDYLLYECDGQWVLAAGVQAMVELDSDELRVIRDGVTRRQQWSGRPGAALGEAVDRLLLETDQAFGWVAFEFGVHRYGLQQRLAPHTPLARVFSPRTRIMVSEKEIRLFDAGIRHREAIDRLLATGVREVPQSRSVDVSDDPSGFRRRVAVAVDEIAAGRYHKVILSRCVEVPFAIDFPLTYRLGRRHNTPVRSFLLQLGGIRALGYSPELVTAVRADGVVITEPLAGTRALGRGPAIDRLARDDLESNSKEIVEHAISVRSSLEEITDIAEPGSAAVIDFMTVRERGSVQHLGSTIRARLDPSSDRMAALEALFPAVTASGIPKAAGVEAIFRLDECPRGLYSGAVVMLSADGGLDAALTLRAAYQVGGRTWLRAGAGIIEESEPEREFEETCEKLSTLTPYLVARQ
# Polio RdRp inh intensity: recorded beside Polio RdRp inh, whose call it bears; % elongation; measured here: total intensity read-out; formula for this scale not given here;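 total fluorescence in place of polarization; lower means less elongation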
# The depositor's hits bear a star; / = no result given; & = joins results of further samples.
1	Cn1c(SCC(=O)NN)nnc1-c1ccccc1
2	Cc1cc(CNC(C)c2ccncc2)c(C)n1-c1ccnn1C(C)C (stereo unspecified)
3	O=C(CO/N=C/c1ccco1)N1CCN(S(=O)(=O)c2ccc3ccccc3c2)CC1
4	COc1cccc(OCCCSC(C)C)c1
5	CN(C)c1ccc(CN(CC2CCCO2)S(=O)(=O)c2ccccc2C#N)cc1 (stereo unspecified)
6	COc1cccc(OC)c1CN(C)C(=O)c1cnc(Oc2ccccc2)cc1C(F)(F)F
7	CSc1nn(C)c2cnn(C)c(=O)c12
8	c1ccc2c(c1)ncn2-c1ncnc2sc3c(c12)CCCC3
9	O=C(c1ccccc1Br)N1CCN(c2ccccc2)CC1
10	Cc1ccc(-c2nc(C(=O)NCCN3CCc4ccccc4C3)c3n2CCCCC3)cc1
entry no. | 1 | 2 | 3 | 4 | 5 | 6 | 7 | 8 | 9 | 10
Polio RdRp inh | 97 | 100 | 100 | 101 | 98 | 103 | 55* | 100 | 100 | 105
Polio RdRp inh intensity | 99 | 105 | 103 | 100 | 100 | 96 | 69* | 102 | 98 | 104
Mtb MenB inh | -15 | -16 | -8 | -1 | -17 | -2 | -2 | -8 | / | -25
MbtI inh | / | 12 | 15 | -5 | 0 | 37 | 71 | -23 | 0 | -9

11	CC(C(O)c1ccccc1)N(C)S(=O)(=O)c1ccc(Cl)cc1 (stereo unspecified)
12	CCCCCC(=O)Nc1ccc2oc(-c3cccnc3)nc2c1
13	CCc1ccc(N(C2C=CS(=O)(=O)C2)S(=O)(=O)c2ccccc2)cc1 (stereo unspecified)
14	O=C(NCCc1nc2ccccc2[nH]1)c1[nH]nc2c1CCc1ccccc1-2
15	CC(=O)Nc1ccc2sc(C)nc2c1
16	CSc1nc2ccc(NC(=O)c3ccc4ncsc4c3)cc2s1
17	CCOc1ccc(N2CC(C#N)=C3c4cc(OC)c(OC)cc4CCN3C2)cc1
18	CS(=O)(=O)c1[nH]nc(-c2ccccc2Cl)c1C#N
19	CCN(CC)C(=S)Nc1ccc2nc3n(c(=O)c2c1)CCCCC3
20	CSc1nc2ccccc2c(=O)n1CC(=O)C(C)(C)C
entry no. | 11 | 12 | 13 | 14 | 15 | 16 | 17 | 18 | 19 | 20
Polio RdRp inh | 102 | 105 | 98 | 100 | 104 | 101 | 101 | 100 | 100 | 101
Polio RdRp inh intensity | 104 | 102 | 102 | 101 | 104 | 101 | 100 | 103 | 101 | 103
Mtb MenB inh | / | -18 | -31 | -21 | -38 | -27 | 28 | -1 | 6 | -3
MbtI inh | -9 | 80 | -4 | 8 | -7 | 2 | -1 | -88 | 16 | 5

21	CCCOc1cccc(C(=O)NCc2cccnc2)c1
22	Cc1cc(=O)[nH]c2c1c(=O)[nH]n2C1CC(C)N(C)CC1C (stereo unspecified)
23	CCC(=O)Nc1ccc(C#N)cc1
24	CC1CCN(Cn2nc(-c3ccccc3)oc2=S)CC1
25	Cc1ccc(S(=O)(=O)NC(=O)Oc2ccccc2N2CCOCC2)cc1
26	O=C(O)CCC(=O)N1CCOc2ccccc21
27	CCCCc1cc(=O)oc2cc(OCC(N)=O)ccc12
28	CCC(=O)N(C)c1nc(-c2ccc(Cl)s2)cs1
29	CCN(CC)C(=O)NC(=O)c1c(C)cc(Cl)nc1Cl
30	CCc1nn2c(=O)cc(CN3c4ccccc4CC3C)nc2s1 (stereo unspecified)
entry no. | 21 | 22 | 23 | 24 | 25 | 26 | 27 | 28 | 29 | 30
Polio RdRp inh | 105 | 102 | 108 | 102 | 104 | 102 | 101 | 99 | 104 | 101
Polio RdRp inh intensity | 102 | 103 | 112 | 106 | 120 | 105 | 102 | 100 | 110 | 103
Mtb MenB inh | -29 | -8 | -3 | -15 | 7 | -17 | 1 | 2 | -9 | 5
MbtI inh | -2 | 2 | / | -84 | -4 | -13 | -84 | -5 | / | 14

# Gathered by group, the entries above containing an aryl methoxy group.
4	COc1cccc(OCCCSC(C)C)c1
6	COc1cccc(OC)c1CN(C)C(=O)c1cnc(Oc2ccccc2)cc1C(F)(F)F
17	CCOc1ccc(N2CC(C#N)=C3c4cc(OC)c(OC)cc4CCN3C2)cc1
entry no. | 4 | 6 | 17
Polio RdRp inh | 101 | 103 | 101
Polio RdRp inh intensity | 100 | 96 | 100
Mtb MenB inh | -1 | -2 | 28
MbtI inh | -5 | 37 | -1

# Going on with the list:
31	Cn1c2ccc(N=Cc3ccccc3O)cc2c2nc3ccccc3nc21
32	CCOC(=O)c1[nH]c(C)c(C(=O)NCCc2ccc(OC)c(OC)c2)c1CC
33	COc1ccc(CCN(C)C(C)C(=O)NC2CCCC2)cc1OC (stereo unspecified)
34	Cn1c(=O)c(=O)n(C)c2cc(S(=O)(=O)CCC(=O)N3CCCc4ccccc43)ccc21
35	COc1ccc(OCCNC(=O)c2nccnc2C(=O)O)cc1
36	Cn1ccnc1SCC(=O)N1Cc2ccccc2CC1C(=O)O (stereo unspecified)
37	N=C1CCCN1CC(=O)c1ccc(Br)cc1
38	CN1C(=O)N(C)C(=O)C(Cc2ccccn2)(Cc2ccccn2)C1=O
39	COc1c(Cl)cc(Cl)cc1CNCC1CCCO1 (stereo unspecified)
40	O/N=C/c1c(O)ccc2ccccc12
entry no. | 31 | 32 | 33 | 34 | 35 | 36 | 37 | 38 | 39 | 40
Polio RdRp inh | 99 | 100 | 101 | 104 | 103 | 99 | 109 | 104 | 103 | 98
Polio RdRp inh intensity | 104 | 97 | 100 | 108 | 107 | 102 | 121 | 102 | 105 | 100
Mtb MenB inh | 4 | -2 | 5 | -23 | -3 | -1 | 15 | -35 | -29 | 32*
MbtI inh | 1 | -6 | 2 | -2 | -9 | -2 | / | -8 | -8 | -49

41	CC(C)(C)C(N)=NC#N
42	COC(=O)c1ccc(C(=O)OC)c(NC(=S)N2CCCCC2C)c1 (stereo unspecified)
43	O=C(CC(c1cccs1)N1Cc2ccccc2C1=O)NCCN1CCOCC1 (stereo unspecified)
44	O=C(O)[C@@H]1CCCCN1C(=O)OCC1c2ccccc2-c2ccccc21
45	CC(C)c1ccc(NC(=O)CN2N=C(c3ccc(Cl)cc3)CCC2=O)cc1
46	CN(C)S(=O)(=O)c1cccc(C(=O)N=c2sc3ccccc3n2C)c1
47	COc1ccc(-c2noc(NCC3CCCO3)n2)cc1 (stereo unspecified)
48	CC[C@@H]1/C=C/C=C/C[C@H](C)[C@@H](O)[C@](C)(O)C(=O)[C@H](C)[C@@H](O)[C@H](C)C(=O)[C@H](C)[C@@H](O)[C@H](C)/C=C/C(=O)O[C@H]2[C@@H](C)[C@@H](CC1)O[C@@]1(CC[C@@H](C)[C@@H](C[C@H](C)O)O1)[C@@H]2C
49	O=C(Nc1ccccn1)Nc1cccs1
50	O=C(CSc1nnc2n1CCCCC2)Nc1cccc2ccccc12
entry no. | 41 | 42 | 43 | 44 | 45 | 46 | 47 | 48 | 49 | 50
Polio RdRp inh | 103 | 103 | 101 | 101 | 104 | 105 | 103 | 98&98 | 101 | 107
Polio RdRp inh intensity | 105 | 98 | 102 | 106 | 106 | 98 | 102 | 102&100 | 102 | 98
Mtb MenB inh | -18 | -21 | 2 | -19 | -23 | -14 | -23 | -10 | -4 | 14
MbtI inh | -20 | 11 | -9 | -4 | -12 | -34 | -26 | 4 | 8 | 8

51	Cc1nnc(SCC(=O)NCCc2ccco2)c2nn(-c3ccccc3)c(C)c12
52	CCN(CC)S(=O)(=O)c1cccc2cc(C(=O)O)c(O)cc12
53	N#Cc1ccc(COC(=O)CCC2CCCC2)cc1
54	CN1CCN(S(=O)(=O)c2ccc(N3CCN(c4ccccc4Cl)CC3)nc2)CC1
55	COc1cc(NC(=O)CNCC(C)C)cc(OC)c1OC
56	S=C(NCCc1ccccc1)NCC(c1cccnc1)N1CCOCC1 (stereo unspecified)
57	CCOC(=O)C1CCN(C(=O)/C(=C/c2ccc(F)cc2)c2ccsc2)CC1
58	O=C(O)c1ccccc1Nc1cccc(C(F)(F)F)c1
59	CCN(CC)S(=O)(=O)c1cccc(C(=O)OCc2cc(=O)n3cc(C)ccc3n2)c1
60	O=C1c2ccccc2C(=O)N1CCc1c[nH]c2ccccc12
entry no. | 51 | 52 | 53 | 54 | 55 | 56 | 57 | 58 | 59 | 60
Polio RdRp inh | 102 | 101 | 105 | / | 109 | 104 | 102 | 99&99&101&100 | 98 | 101
Polio RdRp inh intensity | 105 | 102 | 107 | / | 105 | 105 | 101 | 102&101&103&99 | 97 | 101
Mtb MenB inh | -3 | -6 | / | -21 | 14 | -9 | / | -4&-4&-3 | -25 | 1
MbtI inh | -10 | 9 | -6 | 2 | 5 | -11 | 2 | 32&23&25 | -7 | -10

# Whole records as entered above:
# CCN(CC)S(=O)(=O)c1cccc2cc(C(=O)O)c(O)cc12 in the list: Polio RdRp inh: 101; Polio RdRp inh intensity: 102; Mtb MenB inh: -6; MbtI inh: 9
# COc1cc(NC(=O)CNCC(C)C)cc(OC)c1OC in the list: Polio RdRp inh: 109; Polio RdRp inh intensity: 105; Mtb MenB inh: 14; MbtI inh: 5

# (further entries)
61	O=C(NCc1cn2ccsc2n1)Nc1ccc(Cc2ccc(NC(=O)NCc3cn4ccsc4n3)cc2)cc1
62	O=C(CCc1nnc2ccc(N3CCCCC3)nn12)N1CCCC1
63	CC1=NN(C(=O)c2ccccc2)C(O)(c2ccc(Cl)cc2)C1 (stereo unspecified)
64	Cc1noc(C)c1CC(=O)N(Cc1ccccc1)c1nc2c(s1)CCCC2
65	O=C1CC2(CCN(C(=O)Cc3ccccc3)CC2)Oc2ccccc21
66	O=C1NCCN1CCNS(=O)(=O)c1ccc(N2C(=O)CCC2=O)cc1
67	Cc1cccc(NC2CC(=O)N(c3cccc(Cl)c3)C2=O)c1 (stereo unspecified)
68	CC12CCC(=O)N1C(C(=O)OCC(=O)N1c3ccccc3NC(=O)C1(C)C)CS2 (stereo unspecified)
69	CCC1(C)CC(CCN)(c2ccc(F)cc2)CCO1 (stereo unspecified)
70	CCC(C)c1ccc(NC(=O)CSc2nncn2N)cc1 (stereo unspecified)
entry no. | 61 | 62 | 63 | 64 | 65 | 66 | 67 | 68 | 69 | 70
Polio RdRp inh | 100 | 102 | 100 | 104 | 106 | 101 | 101 | 105 | 107 | 103
Polio RdRp inh intensity | 99 | 104 | 103 | 92 | 96 | 96 | 102 | 108 | 113 | 103
Mtb MenB inh | -29 | 3 | -47 | -28 | -16 | 1 | 25 | -26 | -7 | -11
MbtI inh | -23 | 18 | -1 | 2 | 97 | -1 | 17 | -9 | / | -4

# 7 compounds picked at random from those above:
70	CCC(C)c1ccc(NC(=O)CSc2nncn2N)cc1 (stereo unspecified)
69	CCC1(C)CC(CCN)(c2ccc(F)cc2)CCO1 (stereo unspecified)
62	O=C(CCc1nnc2ccc(N3CCCCC3)nn12)N1CCCC1
65	O=C1CC2(CCN(C(=O)Cc3ccccc3)CC2)Oc2ccccc21
66	O=C1NCCN1CCNS(=O)(=O)c1ccc(N2C(=O)CCC2=O)cc1
67	Cc1cccc(NC2CC(=O)N(c3cccc(Cl)c3)C2=O)c1 (stereo unspecified)
63	CC1=NN(C(=O)c2ccccc2)C(O)(c2ccc(Cl)cc2)C1 (stereo unspecified)
entry no. | 70 | 69 | 62 | 65 | 66 | 67 | 63
Polio RdRp inh | 103 | 107 | 102 | 106 | 101 | 101 | 100
Polio RdRp inh intensity | 103 | 113 | 104 | 96 | 96 | 102 | 103
Mtb MenB inh | -11 | -7 | 3 | -16 | 1 | 25 | -47
MbtI inh | -4 | / | 18 | 97 | -1 | 17 | -1

# Carrying on.
71	CCOc1ccc(/C=C/C(=O)NCc2ccco2)cc1OC
72	CN1C(=O)/C(=C/c2cn(CC(=O)N3CCOCC3)c3ccccc23)C(=O)NC1=S
73	COc1ccc(/C=C/C(=O)N2c3ccccc3Sc3ccccc32)c(OC)c1
74	Cc1cc(/C=C2/SC(=O)N(C(C)C)C2=O)c(C)n1-c1ccncc1
75	COc1ccc(-c2cc(C(=O)N3CCC4(CC3)OCCO4)[nH]n2)cc1
76	N#Cc1cccc2c1[nH]c1ccc(Cl)cc12
77	CC(=O)OC(C(=O)Nc1nc2ccccc2s1)c1ccccc1 (stereo unspecified)
78	NC(=O)C(C(=O)/C=C/c1ccc(F)cc1)=C1SCS1
79	Cn1c(SCC(=O)NCCC2=CCCCC2)nc2sccc2c1=O
80	Cn1c(Cc2noc(-c3ccccc3)n2)nc2ccccc21
entry no. | 71 | 72 | 73 | 74 | 75 | 76 | 77 | 78 | 79 | 80
Polio RdRp inh | 98 | 104 | 102 | 98 | 102 | 101 | 101 | 106 | 107 | 109
Polio RdRp inh intensity | 98 | 107 | 107 | 95 | 106 | 103 | 97 | 107 | 115 | 101
Mtb MenB inh | -1 | -14 | -33 | -32 | -16 | -40 | -21 | -29 | 0 | -26
MbtI inh | -109 | -11 | 7 | 14 | 5 | -21 | -8 | 45 | -4 | 6

81	O=c1[nH]nc(N2CCSCC2)[nH]1
82	COc1cc(/C=c2\sc3nc(-c4ccccc4C)nn3c2=O)cc(Br)c1OC(C)=O
83	O=C1O/C(=C\c2ccccc2)c2ccccc21
84	CCc1cccc(NC(=S)N(C)Cc2cn(C)c3ccccc23)c1
85	Cc1cccc(-c2noc(CN(C(=O)Cc3ccccc3)C(C)C)n2)c1
entry no. | 81 | 82 | 83 | 84 | 85
Polio RdRp inh | 99 | 120 | 101 | 102 | 104
Polio RdRp inh intensity | 99 | 137 | 101 | 106 | 99
Mtb MenB inh | 2 | -16 | -7 | -42 | -26
MbtI inh | -4 | -12 | 6 | -14 | -9

# From PubChem BioAssay
